# Bioassay records deposited in PubChem by National Center for Advancing Translational Sciences (NCATS).
# PINK1 expr mod: modulators of PINK1 expression | PINK1 immunofluorescence, high-content cytometry, 24 h | 410,000 tested, 0.2% active | Potency, µM (doses to about 76.6 µM), for the others: top-dose activation (PINK1 increase), usual class: activators; active = well fitted activation curve with a large enough effect; inconclusive = small, poorly fitted or top-dose-only effect; inactive = flat fitted curve, though single readings scatter; cell line not stated here;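 further: potency means the concentration at half of the fitted maximal effect; % of control where 0% means no effect; nearly all actives have a fitted effect of over 65% in size; a mitochondrial uncoupler was the plate control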
#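 Cells are seeded, rested 12 hours, then given compound at five concentrations or DMSO for 24 hours. After fixation, blocking and antibody staining, PINK1 amount and mitochondrial localization are scored; CCCP serves as control.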
# Six1-Eya2 blk: blocks human Six1 binding to Eya2; Q15475+O00167; AlphaScreen GST-Six1/His-Eya2 binding, biochemical; active compounds read low; control for the full effect not named in the record; activity change, % (concentration not given with the values); 360,000 tested, 0.56% active; AID 651725; in the data active = activity change below about -65%; inconclusive = about -30% to -65%; inactive = above about -30%; further: on the % scale 0 is the no-effect control and ±100 the full control effect
# Target sequence (O00167 whole entry, looked up): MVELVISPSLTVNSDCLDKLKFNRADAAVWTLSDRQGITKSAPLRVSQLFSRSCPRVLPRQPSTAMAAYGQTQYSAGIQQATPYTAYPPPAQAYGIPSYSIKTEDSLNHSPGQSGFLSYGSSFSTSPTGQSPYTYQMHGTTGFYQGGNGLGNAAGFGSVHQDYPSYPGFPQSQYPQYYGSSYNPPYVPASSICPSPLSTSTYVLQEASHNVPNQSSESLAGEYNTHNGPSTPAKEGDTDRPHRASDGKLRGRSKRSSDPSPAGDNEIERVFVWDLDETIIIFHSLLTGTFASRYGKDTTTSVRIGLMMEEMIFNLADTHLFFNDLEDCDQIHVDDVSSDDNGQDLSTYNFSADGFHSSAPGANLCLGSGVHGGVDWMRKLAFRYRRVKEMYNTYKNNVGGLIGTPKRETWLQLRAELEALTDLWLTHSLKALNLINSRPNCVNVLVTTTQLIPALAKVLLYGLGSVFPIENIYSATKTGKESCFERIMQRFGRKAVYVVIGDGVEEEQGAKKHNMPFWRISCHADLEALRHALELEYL
# Target sequence (Q15475 whole entry, looked up): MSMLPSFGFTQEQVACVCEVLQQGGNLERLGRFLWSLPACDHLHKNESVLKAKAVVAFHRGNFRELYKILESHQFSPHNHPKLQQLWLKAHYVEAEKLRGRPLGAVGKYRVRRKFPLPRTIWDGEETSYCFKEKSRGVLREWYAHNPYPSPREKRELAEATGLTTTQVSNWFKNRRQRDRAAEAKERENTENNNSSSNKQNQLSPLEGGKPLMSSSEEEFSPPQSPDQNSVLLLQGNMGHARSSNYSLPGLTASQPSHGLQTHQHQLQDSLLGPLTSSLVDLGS
#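 GST-Six1 + His-Eya2 (5X stock: 250/500 nM); Tris pH 8.0, 300 mM NaCl, 0.05% BSA, 0.02% Tween 20; GSH donor/Ni acceptor beads; 1 h 37 °C dark; AlphaScreen readout.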
# D2 PAM: positive allosteric modulators of human D2 dopamine receptor | potentiation, % (no concentration beside the values) | DiscoveRx D2 beta-arrestin cells, luminescence, 90 min; 100% = 57 uM dopamine signal | 360,000 tested, 0.23% active | P14416 | AID 624464; active = potentiation of 50% or more; inconclusive = 30% to 50%; inactive = 30% or less;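 further: compound concentration not given in the record; tested on top of an EC20 dose of dopamine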
#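 PathHunter D2 cells, attached overnight at 37 deg C, received compound in DMSO plus dopamine at EC20 (50 nM final) for 90 min at 37 deg C. Beta-arrestin recruitment was read as luminescence after 1 h with detection reagent at ambient temperature.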
# D2 agonist: activates the human D2 dopamine receptor; DiscoveRx PathHunter D2 beta-arrestin, luminescence, 90 min; 100% = 57 uM dopamine signal; activation, % (test concentration not listed); 360,000 tested, 0.084% active; AID 624465; in the data active = activation above about 40%; inconclusive = about 15% to 40%; inactive = below about 15%; further: compound concentration not given in the record; the text of the record calls up to 30% inactive
#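 Agonist mode: compounds alone added to overnight-plated D2 PathHunter cells for 90 min at 37 C, with 57 uM final dopamine (EC100) defining full response. Beta-arrestin recruitment detected by chemiluminescent reagent, read after 1 h at ambient temperature.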
# TRPML1 blocker: blocks the human TRPML1 channel; Q9GZU1; TRPML1-inducible cells, Ca2+ dye fluorescence, FDSS; active compounds read low; inhibition of EC80 agonist-evoked calcium signal; activity change, negative = inhibition, % (concentration not given with the values); 390,000 tested, 0.02% active; in the data active means activity change below about -50%; inconclusive means about -30% to -50%; inactive means above about -30%;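 further: stimulus is agonist 54-4 at its EC80 concentration; on the % scale 0 is the no-effect control and ±100 the full control effect; the text of the record puts the active cut at -80%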
#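 TRPML1-DL cells, Tet-induced overnight (~16 h, 37 °C) at 1,500 cells/well, were loaded with Ca8 no-wash dye plus quencher for 45-90 min at room temperature. Compounds were pinned during FDSS kinetic reading; agonist 54-4 at EC80 (4 uM final) then added.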
# TRPML1 ag: activates the human TRPML1 channel | 410,000 tested, 0.12% active | activation, % (test concentration not listed) | Q9GZU1 | TRPML1-expressing cells, Ca2+ dye fluorescence, FDSS; host cell line not named in the record; reference of the full effect not given here; in the data active = activation above about 50%; inconclusive = about 30% to 50%; inactive = below about 30%; further: 0% is about no effect; the text of the record puts the active cut at 80%
#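 Kinetic FDSS Ca2+ read in Tet-induced TRPML1-DL cells (ABD Ca8 dye plus quencher, 45-90 min RT loading): baseline, then compound, then 110 s agonist window; EC80 agonist 54-4 at 4uM final added afterwards for a 110 s antagonist window.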
# An asterisk follows results filed as active; ? = inconclusive; nt = no result given; & = joins results of further samples; [ ] = dose if it differs, or a comment.
SMILES,PINK1 expr mod,Six1-Eya2 blk,D2 PAM,D2 agonist,TRPML1 blocker,TRPML1 ag
CCCCC[C@@H](/C=C/C1C(=O)C=C[C@H]1C/C=C\CCCC(=O)OC)OC(C)=O (some centres not stated),-2.2%,-1.2,2.8,1.3,0.3,3.9
O=C(c1cc(Cl)nc2ccccc12)N1CCN(Cc2ccc3c(c2)OCO3)CC1,0.9%,-19.1,-13.7,-0.4,13.4,1.9
O=C(Nc1ccccc1)C1=C[C@H](c2coc3ccccc3c2=O)C[C@H](OCCCCO)O1,0.5%,-1.6,-1.3,-2.4,20.4,-0.2
COc1ccc(CN(C)C[C@@H]2OCCCC[C@@H](C)Oc3ccc(N(C)C)cc3C(=O)N([C@H](C)CO)C[C@@H]2C)cc1,4.0%,-20.0,-2.3,-1.9,-1.6,1.4
NC1=NC(=O)CC(C(=O)NCc2ccccc2)S1 (configuration not stated),-1.9%,0.3,-22.7,-3.9,-21.7,2.2
CCc1ccc(S(=O)(=O)c2nnn3c2nc(NCCNC(C)=O)c2cc(Cl)ccc23)cc1,15.9%,nt,nt,nt,-12.5,-0.2
O=C(NCCc1c[nH]c2ccccc12)/C(=C/c1ccco1)NC(=O)c1ccco1,-1.0%,15.3,-6.1,-1.8,20.4,-0.3
COc1cccc(NC(=S)NC(=O)c2cncc(Br)c2)c1,1.4%,-0.1,-14.2,-7.8,7.9,4.7
CSc1cccc(NC(=O)C2CCN(c3ncnc4c3nc3n4CCCCC3)CC2)c1,20.4%,nt,nt,nt,10.7,2.5
C/C(CC(=O)Nc1ccc(Cl)c(C(F)(F)F)c1)=N\NC(N)=S,2.6%,-9.0,-11.5,7.0,0.1,0.1
Cc1cc(C)cc(NC(=O)N2CCCCCCC2)c1,-0.8%,-8.1,-12.2,-2.9,0.1,-0.4
O=C(c1ccco1)N(Cc1cccs1)c1ccc(F)cc1,-0.2%,nt,nt,nt,-4.4,-0.3
C[C@@H](NC(=O)[C@H]1O[C@@H](n2cnc3c(N)ncnc32)[C@H](O)[C@@H]1O)c1cccc2ccccc12,2.8%,-5.4,-2.8,-5.9,14.7,0.1
CCC(=O)Nc1ccc(NC(=O)c2cc3ccccc3o2)c(OC)c1,1.2%,1.0,-3.2,-5.1,1.3,0.8
CCOC(=O)c1c(C)[nH]c(C)c1S(=O)(=O)NCc1ccc(OCC)cc1,-1.0%,-2.7,-36.3,-2.7,3.5,-0.2
CC1CCCCC1NC(=O)NC(=O)COC(=O)C1=NN(c2ccccc2)C(=O)CC1 (configuration not stated),-1.3%,3.4,-3.6,-14.6,-4.9,0.4
Cc1cn(C(=O)C(C)N2C(=O)c3ccccc3C2=O)c(C)n1 (configuration not stated),nt,1.5,-16.4,-3.4,1.4,-0.4
CCCCn1c(N)c(N(CCOC)C(=O)c2ccc(S(=O)(=O)N3CCC(C)CC3)cc2)c(=O)[nH]c1=O,3.8%,-4.4,0.0,-2.5,-1.3,-0.2
Cc1cccc(-c2noc(Cc3ccc(Cl)cc3)n2)c1,?,37.3,-4.5,-1.8,-3.2,2.3
O=C(CNC1=NCCC1)c1ccc2c(c1)OCCO2,4.6%,13.5,3.0,-1.0,-7.7,-0.4
COc1ccc(CNc2nc(S(=O)(=O)c3ccccc3)c(Cl)s2)cc1OC,1.4%,?,5.4,4.1,35.2,0.8
Cc1ccc(OCCSc2ncnc3sc(C)c(C)c23)cc1C,11.5%,-1.0,-7.1,-3.1,20.4,0.1
CC(=O)c1cccc(NC(=O)CCNC(=O)c2ccccc2Cl)c1,0.3%,3.5,10.0,0.1,-6.1,-0.8
O=[N+]([O-])c1cn(-c2nc(-c3ccco3)cc(C(F)(F)F)n2)cn1,5.8%,5.5,12.6,-4.0,3.0,-0.2
CC(=O)Oc1ccc(N2C(=O)C3C4C=CC(C5CC45)C3C2=O)cc1[N+](=O)[O-] (configuration not stated),3.2%,-2.6,-0.9,-7.1,6.7,0.3
# New compounds follow.
SMILES,PINK1 expr mod,Six1-Eya2 blk,D2 PAM,D2 agonist,TRPML1 blocker,TRPML1 ag
CC(=O)c1ccc(S(=O)(=O)Nc2cccc(-c3ccc(N4CCCCCC4)nn3)c2)cc1,-0.3%,nt,nt,nt,-14.2,-0.2
Cc1ccc(C(=O)Nc2ccc3nc(SCC(=O)N4CCc5ccccc54)sc3c2)cc1,1.2%,nt,nt,nt,-1.7,1.1
Cc1nc(N2CCN(c3ccccn3)CC2)c2c(C)c(C(=O)Nc3ccc(Cl)cc3)sc2n1,3.1%,0.9,-2.7,0.0,-13.1,0.0
CCOC(=O)NC(=O)CSc1ccc(S(=O)(=O)N(C)C2CCCCC2)cn1,4.0%,-1.5,-5.4,4.1,26.5,-0.7
COc1ccc2c(n1)Sc1nc3ccccc3nc1N2,?,0.4,1.7,3.9,-7.3,82.2*
Cc1ccc2c(c1)N(CC(=O)NCCCN1CCCCC1)C(=O)CO2,0.1%,-1.2,-6.5,-2.8,6.3,0.0
CCOC(=O)CCc1c(C)c2ccc(OCC)c(C)c2oc1=O,-3.0%[38.3 µM],7.8,-17.3,-0.4,6.1,0.9
COc1cc(OC)c(NC(=O)c2c(C)oc3nc(C)nc(N4CCOCC4)c23)cc1Cl,-3.2%,nt,nt,nt,37.9,0.0
CCOC(=O)c1cc(-c2ccccc2)nn1Cc1cc(C)no1,2.5%,7.6,-6.7,-0.4,6.9,1.0
Cc1ccc(C)c(NC(=S)NCc2ccc3[nH]c4c(c3c2)CCCC4)c1,25.3%,?,-8.9,9.0,1.0,1.3
O=C(NCc1ccccn1)c1cccc([N+](=O)[O-])c1,-6.3%[38.3 µM],-1.6,-11.5,0.5,6.0,0.5
Cc1nnc(SCC(=O)Nc2cccc(C(F)(F)F)c2)[nH]c1=O,-0.1%,-5.9,1.8,-2.2,-19.6,-0.7
O=C(CSc1oc(-c2ccccc2)nc1S(=O)(=O)c1ccc(Br)cc1)c1ccccc1,-2.1%,nt,nt,nt,38.0,2.3
CCOC(=O)C[C@H]1c2cc(F)ccc2S(=O)(=O)N1C(C)(C)C,3.7%,1.7,-4.8,-2.7,16.8,0.7&-1.2
CCOCCCn1c(SCC(=O)NCCCOC)nc2c(sc3ccccc32)c1=O,-1.1%,nt,nt,nt,-19.6,-0.9
CC(=O)c1ccc(NC(=O)c2cc(C3CC3)nc3c2c(C)nn3-c2ccc(C)cc2)cc1,0.3%,nt,nt,nt,16.3,-0.3
O=C(NCc1ccccc1)C1(CC2CC(c3ccccc3)=NO2)CCNCC1 (configuration not stated),-1.5%,-7.2,-5.7,-3.0,-5.4,0.3
O=C(NC(=S)Nc1ccccc1)c1cc(-c2ccccc2)nc2ccccc12,0.2%,-20.5,-33.5,-8.1,0.7,-0.3
CCC(=O)N1CCc2cc(Br)cc(S(=O)(=O)N(CC)Cc3ccccc3)c21,2.9%,nt,nt,nt,24.3,-0.9
COc1ccccc1-c1cc(C(F)(F)F)nc(N2CCOCC2)n1,0.5%,64.2,-11.0,-4.3,6.4,0.1
COC(=O)[C@]1(Cc2ccccc2)N[C@H](CN(C)S(=O)(=O)c2ccc(-c3ccccc3)cc2)[C@@H]2C(=O)N(Cc3ccccc3)C(=O)[C@@H]21,1.4%,17.9,2.1,-1.3,3.2,-0.1
CCOc1ccc(CCN2C(=O)C(=O)N([C@@H](Cc3ccccc3)CN3CCC[C@H]3CN3C(=O)C(=O)NC[C@@H]3Cc3ccc(O)cc3)C[C@@H]2Cc2ccc(O)cc2)cc1,1.7%,0.1,nt,nt,nt,-0.2
O=C(c1cccc(S(=O)(=O)N2CCN(c3ccccc3)CC2)c1)N1CCN(c2ccccc2O)CC1,-0.4%,-5.6,-0.5,5.1,0.1,-0.4
Cn1ncc(Br)c1NC(=O)Nc1ccccc1,2.1%,-1.6,-14.0,5.7,7.4,0.4
CCCCN(C)C(=O)c1cn(C)c2ccc(S(=O)(=O)N(C)C)cc2c1=O,1.3%,7.4,-3.8,-5.4,4.4,0.1

# A draw from above in order of SMILES length, ascending:
SMILES,PINK1 expr mod,Six1-Eya2 blk,D2 PAM,D2 agonist,TRPML1 blocker,TRPML1 ag
O=C(c1ccco1)N(Cc1cccs1)c1ccc(F)cc1,-0.2%,nt,nt,nt,-4.4,-0.3
COc1cccc(NC(=S)NC(=O)c2cncc(Br)c2)c1,1.4%,-0.1,-14.2,-7.8,7.9,4.7
C/C(CC(=O)Nc1ccc(Cl)c(C(F)(F)F)c1)=N\NC(N)=S,2.6%,-9.0,-11.5,7.0,0.1,0.1
CCOC(=O)NC(=O)CSc1ccc(S(=O)(=O)N(C)C2CCCCC2)cn1,4.0%,-1.5,-5.4,4.1,26.5,-0.7
CSc1cccc(NC(=O)C2CCN(c3ncnc4c3nc3n4CCCCC3)CC2)c1,20.4%,nt,nt,nt,10.7,2.5
O=C(NCCc1c[nH]c2ccccc12)/C(=C/c1ccco1)NC(=O)c1ccco1,-1.0%,15.3,-6.1,-1.8,20.4,-0.3
CC(=O)c1ccc(S(=O)(=O)Nc2cccc(-c3ccc(N4CCCCCC4)nn3)c2)cc1,-0.3%,nt,nt,nt,-14.2,-0.2
O=C(Nc1ccccc1)C1=C[C@H](c2coc3ccccc3c2=O)C[C@H](OCCCCO)O1,0.5%,-1.6,-1.3,-2.4,20.4,-0.2
CC(=O)Oc1ccc(N2C(=O)C3C4C=CC(C5CC45)C3C2=O)cc1[N+](=O)[O-] (configuration not stated),3.2%,-2.6,-0.9,-7.1,6.7,0.3
CCCCn1c(N)c(N(CCOC)C(=O)c2ccc(S(=O)(=O)N3CCC(C)CC3)cc2)c(=O)[nH]c1=O,3.8%,-4.4,0.0,-2.5,-1.3,-0.2
COC(=O)[C@]1(Cc2ccccc2)N[C@H](CN(C)S(=O)(=O)c2ccc(-c3ccccc3)cc2)[C@@H]2C(=O)N(Cc3ccccc3)C(=O)[C@@H]21,1.4%,17.9,2.1,-1.3,3.2,-0.1

# Next section
SMILES,PINK1 expr mod,Six1-Eya2 blk,D2 PAM,D2 agonist,TRPML1 blocker,TRPML1 ag
CCC(Cc1ccccc1)NC(=O)c1cc(S(=O)(=O)N2CCCCC2)c[nH]1 (configuration not stated),0.6%,-8.4,-3.0,1.2,2.1,-0.9
CSCC[C@H](NC(=O)[C@@H]1Cc2ccccc2CN1)C(=O)NC1CCCC1,-1.8%,3.9,-4.5,-1.0,-4.3,-0.7
CCc1ccccc1N1CC(c2nc3ccccc3n2CC(C)C)CC1=O (configuration not stated),2.4%,nt,nt,nt,1.5,-0.1
Cc1ccc(NC(=O)C2C3C=CC4(O3)C2C(=O)N(CCCN2CCCC2)C4C(=O)NC2CCCCC2)cc1Cl (configuration not stated),4.4%,-1.0,-17.3,-0.9,-9.5,-0.3
Cc1ccccc1N1CCN(C2CCCN(C(=O)c3cc(CC(C)C)nn3C)C2)CC1 (configuration not stated),0.3%,-5.5,-24.2,2.5,-11.5,-1.4
CCOc1ccc(CN(C)CC(=O)Nc2cc(OC)c([N+](=O)[O-])cc2C)cc1,3.4%,-1.1,-27.0,0.3,11.3,-0.1
